# Compound activity as filed in PubChem BioAssay.
# KCNQ2 inh = KCNQ2 potassium channel inhibitors, primary screen, cell-based, CHO-K1, FluxOR thallium flux, B-score (AID 2156); Potassium voltage-gated channel subfamily KQT member 2 (Rattus norvegicus), O88943; 20 min; active compounds read low; only compounds with negative scores are shown here; some inactives read as strong as hits; B-score at 10 µM; hit rate 1.1% among 310,000;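 active = fluorescence ratio B-score at most minus 3 library SDs, with starting brightness B-score within 2 library SDs, cut at about -5.5 in these data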
# Target sequence (O88943 whole entry, looked up): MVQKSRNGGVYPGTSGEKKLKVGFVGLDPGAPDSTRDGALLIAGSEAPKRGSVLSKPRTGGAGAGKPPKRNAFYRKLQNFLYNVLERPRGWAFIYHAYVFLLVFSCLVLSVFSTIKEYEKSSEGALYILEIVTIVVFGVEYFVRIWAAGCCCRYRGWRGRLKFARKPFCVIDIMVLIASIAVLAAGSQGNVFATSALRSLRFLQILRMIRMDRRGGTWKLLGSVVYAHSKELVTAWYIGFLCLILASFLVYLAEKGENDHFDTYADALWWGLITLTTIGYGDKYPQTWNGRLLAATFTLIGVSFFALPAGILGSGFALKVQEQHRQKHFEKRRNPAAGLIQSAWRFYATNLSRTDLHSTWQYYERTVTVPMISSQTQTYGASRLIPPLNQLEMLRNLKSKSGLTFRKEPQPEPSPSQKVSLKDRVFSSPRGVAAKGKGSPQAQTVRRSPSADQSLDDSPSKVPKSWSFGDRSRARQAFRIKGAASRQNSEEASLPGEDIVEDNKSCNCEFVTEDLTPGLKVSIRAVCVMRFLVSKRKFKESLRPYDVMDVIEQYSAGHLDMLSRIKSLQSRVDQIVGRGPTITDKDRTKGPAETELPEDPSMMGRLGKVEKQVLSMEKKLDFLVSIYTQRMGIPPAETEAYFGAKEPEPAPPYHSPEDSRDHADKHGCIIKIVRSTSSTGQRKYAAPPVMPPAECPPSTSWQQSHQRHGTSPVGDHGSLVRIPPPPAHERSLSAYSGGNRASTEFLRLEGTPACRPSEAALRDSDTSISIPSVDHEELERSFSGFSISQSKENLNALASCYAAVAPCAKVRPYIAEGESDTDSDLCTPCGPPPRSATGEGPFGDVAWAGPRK
# KCNQ2 inh baseline = recorded beside KCNQ2 inh, whose call it bears; B-score; measured here: initial fluorescence intensity artifact check;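 brightness before thallium and not channel activity; 0 = typical well and far values either way flag optical interference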
# Active calls of the source: *; i = inactive.
# Sequence of screens – KCNQ2 inh | KCNQ2 inh baseline
> CC(C)CN(CC(C)C)CC(O)COc1ccccc1Br (stereo unspecified)
    i | 1.6
> CC1(C(=O)N2CCN(c3ccc([N+](=O)[O-])cc3)CC2)CC1(Cl)Cl (stereo unspecified)
    i | -0.12
> Cc1ccc(OCC(=O)NC(=S)Nc2ccc(Br)c(C)n2)cc1
    i | -0.29
> Cc1ccccc1OCCNc1cc(N2CCNCC2)ccc1[N+](=O)[O-]
    i | 1.1
> O=C(NCCCN1CCC(Cc2ccccc2)CC1)C1CC(=O)N(C2CCCC2)C1 (stereo unspecified)
    i | 1.3
> CCOC(=O)C1(CCc2ccccc2)CCN(Cc2cc(OC)c(OC)cc2OC)CC1
    i | 2.5
> CNC(=S)Nc1ccc(C23CC4CC(CC(C4)C2)C3)cc1
    i | -1
> Cc1ccc(C(=O)/C=C/c2ccco2)c(O)c1
    i | 0.19
> Cc1ccc(-c2nn(-c3ccc(F)cc3)cc2C(=O)N(C)CC(=O)Nc2ccc(N3CCOCC3)cc2)cc1
    i | -0.32
> CCn1c(SCc2nc3ccccc3nc2C)nnc1-c1cccs1
    i | 0.42

# Single records, as listed above:
# Cc1ccc(OCC(=O)NC(=S)Nc2ccc(Br)c(C)n2)cc1 is listed with KCNQ2 inh: i; KCNQ2 inh baseline: -0.29
# CC1(C(=O)N2CCN(c3ccc([N+](=O)[O-])cc3)CC2)CC1(Cl)Cl (stereo unspecified) is listed with KCNQ2 inh: i; KCNQ2 inh baseline: -0.12

# Carrying on:
# Sequence of screens – KCNQ2 inh | KCNQ2 inh baseline
> CSc1nc(Cl)c(Cc2ccc(OC(C)C)cc2)c(N2CCOCC2)n1
    -11* | -1.6*
> Cc1ccc(S(=O)(=O)N/N=C\c2cn(CC(N)=O)c3ccccc23)cc1
    i | -0.47
> CCOC(=O)c1c(C)n(C)c2ccc(OCC(O)Cn3nc(C)cc3C)cc12 (stereo unspecified)
    i | 0.28
> COC(=O)CC1=C(C(=O)OC)C(c2cc(OC)c(OC)cc2OC)C(C#N)=C(N)O1 (stereo unspecified)
    i | 1
> Cc1ccc(NC(=O)NC(=O)N(c2ccccc2)S(C)(=O)=O)cc1
    i | 0.58
> COc1ccc(-c2nn(-c3ccccc3)cc2/C=N/NC(=O)c2ccc3c(c2)OCO3)cc1
    i | -1.3
> COc1ccc(C[C@@H]2CN3C(=NC[C@@H]3C)N2C[C@H](C)NC(=O)c2ccc(C)c(Br)c2)cc1
    i | -0.3
> CCOc1cc(C(=O)Nc2cnccn2)cc(OCC)c1OCC
    i | 0.93
> O=S(=O)(c1ccccc1)N1CCC(N2CCCCCC2)CC1
    i | -0.95
> CC(C)c1cc(-c2cc(-c3ccc(Cl)cc3)on2)nc(NC2CCCC2)n1
    i | 0.58
> O=C(CSc1n[nH]c(=O)[nH]c1=O)N1CCCCCC1
    i | 0.06
> NC(=S)N/N=C/c1cccc(Br)c1
    i | 0.35
> N#Cc1nc(-c2ccccc2F)oc1NCc1cccc2c1OCO2
    i | 0.35
> O=C(O)CCC(=O)N(Cc1ccccc1)Cc1ccccc1
    i | -0.46
> COc1cccc(NC(=O)CN(C)C(=O)c2ccccc2OCC(=O)Nc2cccc(C(F)(F)F)c2)c1
    i | 2
> CCOc1cc(C(=S)N2CCCCC2)ccc1OS(=O)(=O)c1ccc(Br)cc1
    i | 1.4
> C=CCn1c(=O)c2ccccc2n2c(SCc3c(C(=O)OCC)oc4ccccc34)nnc12
    i | -0.88
> CCc1ccc(S(=O)(=O)NCCc2cn3ccc(C)cc3n2)s1
    i | -1.4
> CCOC(=O)c1ccccc1NC(=O)CN(c1ccccc1)S(=O)(=O)N(C)C
    i | 1.2
> Cc1sc(NC(=O)Cc2ccc3c(c2)OCO3)nc1-c1ccc2c(c1)CCN2C(=O)c1cccc(F)c1
    i | 2.4
> O=C(CC(Nc1ccc(Cl)cc1Cl)C(=O)O)c1ccccc1 (stereo unspecified)
    i | -0.64
> COC(=O)CN(c1cc(Cl)ccc1OC)S(=O)(=O)c1ccc(OC)c(OC)c1
    i | 1.5
> COC(=O)c1cc(C(=O)c2cccc(Cl)c2Cl)cn1C
    i | 0.24
> COc1ccccc1OCCNC(=O)C1CC(=O)N(c2cccc(SC)c2)C1 (stereo unspecified)
    i | 2.2
> CC(=O)c1c(C)[nH]c(C(=O)Nc2nc(-c3ccc(-c4ccccc4)cc3)cs2)c1C
    -7.6* | 0.06*
> COC(=O)C1=C2SCC(=O)N2C(N)=C(C#N)C1
    i | -0.68
> CCOP(=O)(OCC)/C(C#N)=C/c1ccc([N+](=O)[O-])cc1
    i | -1.1
> COc1ccc(CSc2nc3ccccc3c(=O)n2CCCN2CCOCC2)cc1F
    i | -1.6
> CCOC(=O)/C(C#N)=C/Nc1ccccc1OC(F)(F)F
    i | -0.09
> COc1cc2c(cc1OC)CN(C1CC(=O)N(c3c(C)cccc3C)C1=O)CC2 (stereo unspecified)
    i | 1.3

# The closing two records of the part before are carried over, then new ones follow:
# Sequence of screens – KCNQ2 inh | KCNQ2 inh baseline
> CCOC(=O)/C(C#N)=C/Nc1ccccc1OC(F)(F)F
    i | -0.09
> COc1cc2c(cc1OC)CN(C1CC(=O)N(c3c(C)cccc3C)C1=O)CC2 (stereo unspecified)
    i | 1.3
> Cc1c(NC(=O)COc2ncnc3c(Cl)cc(Cl)cc23)c(=O)n(-c2ccccc2)n1C
    i | -2.4
> COc1ccc(N/N=C2/CCCCC2=O)cc1
    i | 1.3
> CCCOP(=O)(c1ccc(N(C)C)cc1)C(Nc1ccccc1)c1ccc(C)cc1 (stereo unspecified)
    i | 0.54
> CC(C)c1nc(CN2CCCCC2)cc(=O)[nH]1
    i | 0.01
> Cc1cc(C)c(C#N)c(SCc2cc3c(cc2Cl)OCO3)n1
    i | -2.2
> O=C(NCCCc1ccccc1)C1CCN(c2nnc(-n3cccc3)s2)CC1
    i | -0.02
> CNC(=O)/C(C#N)=C1\SC(Cc2ccc(F)cc2)C(=O)N1c1ccccc1C (stereo unspecified)
    i | -0.58
> O=C(CC1SC(=O)N(c2ccccc2)C1=O)Nc1cccc2ccccc12 (stereo unspecified)
    i | -0.91
> COCCn1c(-c2ccco2)csc1=Nc1cccnc1
    i | 0.53
> O=C(NCc1ccco1)c1ccc(COc2ccc(Cl)cc2)cc1
    i | -0.51
> Cc1ccc(C(=O)c2ncc[nH]2)cc1
    i | 0.14
> CCOC(=O)C1CCN(C(=O)CCNS(=O)(=O)c2ccc3c(c2)CCN3C(=O)CC)CC1
    i | -0.75
> COc1ccc(NC(=O)CC2Oc3ccccc3NC2=O)c(OC)c1 (stereo unspecified)
    i | 0.52
> CCCc1cc(=O)[nH]c(SCC(=O)N2CCN(c3ccccc3)CC2)n1
    i | 0.18
> O=C(NC(=S)N1CCN(c2ccccn2)CC1)c1ccccc1
    i | 0.23
> COc1cc2c(cc1OC)-c1c(OC)c(OC)cc3ccnc(c13)C2=O
    i | -2.7
> CCNc1nc(NC(C)C)nc(Nn2cnnc2)n1
    i | 0.15
> CC1=CN2C(=NC(=O)CC2(C)C(=O)N(CC(=O)NC2CCCC2)Cc2ccccc2)C=C1 (stereo unspecified)
    i | 0.95
> O=C(Cn1cnc2ccccc2c1=O)NC1CCCc2ccccc21 (stereo unspecified)
    i | -0.03
> CCOc1ccccc1N(C)S(=O)(=O)c1ccc2c(c1)N(C(C)=O)CCO2
    i | -0.02

# Shown with values ahead of the structure: part of the list above
KCNQ2 inh | KCNQ2 inh baseline | SMILES
i | 0.06 | O=C(CSc1n[nH]c(=O)[nH]c1=O)N1CCCCCC1
i | 2 | COc1cccc(NC(=O)CN(C)C(=O)c2ccccc2OCC(=O)Nc2cccc(C(F)(F)F)c2)c1

# (continued)
# Sequence of screens – KCNQ2 inh | KCNQ2 inh baseline
> CN(C)C(=O)N1CCCC(C(=O)NCc2ccc(F)cc2Cl)C1 (stereo unspecified)
    i | 0.52
> Cc1cc(NC(=O)CN2C(=O)CCSc3ccccc32)no1
    i | -1.5
> c1cnc(N2CCN(Cc3ccc4c(c3)OCO4)CC2)nc1
    i | -0.75
> COc1ccc(N2CCN(S(=O)(=O)CCNS(=O)(=O)c3ccccc3)CC2)cc1
    i | -0.19
> COc1ccc(NC(=S)N(CCN2CCCCC2)Cc2ccco2)cc1
    i | -0.35
> CC(=O)NCCOc1ccc(C(=O)O)cc1
    i | -0.33
> Cc1ccc(S(=O)(=O)CC(=O)Nc2ncc([N+](=O)[O-])s2)cc1
    i | -0.74
> C/C(=N\NC(=O)c1ccn(C)n1)c1ccco1
    i | -0.12
> COc1ccc(NS(=O)(=O)c2ccc(F)c(Cl)c2)cn1
    i | -0.28
> O=C(CSc1ccccn1)Nc1cccc2ccccc12
    i | 0.05
> CCC(=O)N1c2ccc(S(=O)(=O)CCC(=O)N3CCN(c4ccccc4)CC3)cc2CC1C (stereo unspecified)
    i | 0.68
> C=CCCC(=O)Nc1nc(C)c(-c2csc(Nc3cc(OC)ccc3OC)n2)s1
    i | -0.45
> COc1cc2c(cc1OC)C(C(=O)O)C(c1ccc(C)o1)N(C)C2=O (stereo unspecified)
    i | 0.46
> CCCc1nc(-c2ccccc2O)n(-c2ccccc2)n1
    i | 0.01
> O=C(C(=O)N1CCN(c2cccc(Cl)c2)CC1)c1cn(CC(=O)N2CCOCC2)c2ccccc12
    i | 2.2
> O=C(O)CSCc1nc2ccccc2[nH]1
    i | -0.62
> Cc1cc(C)cc(OCC(=O)OCC(=O)NCCC2=CCCCC2)c1
    i | -1.1
> CC(=O)Nc1ccc(NC(=O)C2CCN(S(=O)(=O)c3cccc4nonc34)CC2)cc1
    i | -2.2
> CCc1ccc(CN2CCC(Oc3ccc(C(=O)NCc4ccccn4)cc3)CC2)o1
    i | 0.04
> CCn1c(SCC(=O)O)nnc1-c1cccnc1
    i | 0.34
> COc1ccc(OC)c(S(=O)(=O)Oc2ccc(N)c3ccccc23)c1
    i | 0.64
> Cc1ccc(OCC(O)CNS(=O)(=O)c2ccccc2C(=O)N2CCCCC2)cc1 (stereo unspecified)
    i | 1.5
> COc1ccccc1C(=O)Nc1cc(C)ccc1NC(=O)c1ccco1
    i | -0.63
> CC(=O)C1=C(c2ccccc2)OC(N)=C(C#N)C1c1ccccc1C (stereo unspecified)
    i | -1.1
> Cc1ccc(-c2csc(=S)n2CC(=O)OCC(=O)NCc2ccc(F)cc2)cc1
    i | -0.02
> COCC(=O)N1CCC(Oc2ccc(C(=O)NCc3csc(C(C)C)n3)cc2)CC1
    i | -1.2
> COc1ccc(-c2nc3ccccc3n2Cc2ccc(C)cc2)cc1
    i | 1.9
> COc1cc(-c2nn3c(-c4cccnc4)nnc3s2)cc(OC)c1OC
    i | 1.9
> Cc1ccc(NC(=O)N[C@H](C(=O)O)C(C)C)c(C)c1
    i | -2
> COc1ccccc1CNC(=O)CCS(=O)(=O)c1ccc2c(c1)CC(C)N2C(=O)C1CC1 (stereo unspecified)
    i | 1.3
> CCCCc1nc(Cl)c(CO)n1Cc1ccc(-c2ccccc2-c2nnn[nH]2)cc1
    i | -0.56
> Cc1ccc(N(C(=O)Nc2ccccc2)C2=NCCC2)cc1
    i | 0.09
> O=C(CSc1ncnc2ccccc12)NCCc1ccccc1
    i | -0.14
> O=C(NCc1ccccc1)c1cccc(NS(=O)(=O)c2cccc3cccnc23)c1
    i | -0.05
> Cc1cccc(N2CC(C(=O)O)CC2=O)c1C (stereo unspecified)
    i | -0.37
> CCCCNC(=O)c1cc(-c2ccc(OC)cc2)on1
    i | -1.8
> O=C(c1ccco1)N1CCN(C(c2ccccc2)c2nnnn2Cc2cccs2)CC1 (stereo unspecified)
    i | 1.2
> O=[N+]([O-])c1ccccc1/C=C/C=N/n1c(-c2cc(-c3ccccc3)n[nH]2)n[nH]c1=S
    i | 0.56
> COc1cccc(/C=C/C(=O)Nc2ccc(C(=O)Nc3cccc(S(N)(=O)=O)c3)cc2)c1OC
    i | -0.09
> O=C(CSc1nncs1)Nc1nnc(-c2ccccc2)o1
    i | 0.56
> CCOc1ccccc1NC(=O)N1CCCC1C(=O)NCc1ccco1 (stereo unspecified)
    i | 0.1
> O=C(NNC(=S)NC(=O)c1cccc([N+](=O)[O-])c1)c1ccc(Br)cc1
    i | -0.06
> CCOC(=O)c1sc2ccc(S(=O)(=O)N3CCOCC3)cc2c1N
    i | 0.35
> CC(C)N1CCC(N2CCN(CC#Cc3ccccc3)CC2CCO)CC1 (stereo unspecified)
    i | -1.5
> COc1ccccc1CCNC(=O)C(=O)NCC1OCCN1S(=O)(=O)c1ccc(Br)cc1 (stereo unspecified)
    i | 0.13
> Nc1nc(SCc2ccc3c(c2)OCCO3)n[nH]1
    i | 1.1
> COc1cc2cc(C)c(SCC(=O)N3CCOCC3)nc2cc1OC
    i | 0.55
> CC(C)Oc1cc(NC(=O)CS(=O)CC(=O)Nc2cccc(C(F)(F)F)c2)c(Cl)cc1Cl (stereo unspecified)
    i | -0.15
> CC1(c2ccccc2)NC(=O)N(CC(=O)Nc2nc(-c3ccccn3)cs2)C1=O (stereo unspecified)
    i | 1.9
> COc1ccccc1CN(C)C(=O)c1ccc(COc2ccccc2)cc1
    i | -1.1

# Other structures:
# Sequence of screens – KCNQ2 inh | KCNQ2 inh baseline
> COc1cc(SC)ccc1C(=O)Nc1ccc2c(c1)OCCO2
    i | -0.52
> OCC[C@@H]1C[C@H](O)[C@@H](O)[C@@]2(OCCc3ccccc32)O1
    i | 0.32
> OCCN1CCN(CCOc2cccc(Cl)c2)CC1
    i | -0.86
> N#C/C(=C/c1ccc(N2CCCCC2)o1)C(=O)NCCc1c[nH]c2ccccc12
    i | 11
> Cc1cc(C)nc(SCC(=O)Nn2cnnc2)n1
    i | 0.59
> O=C(CN1C(=O)/C(=C/c2ccccc2)SC1=S)Nc1cccnc1
    i | -1.1
> CN1CCN(NC(=O)c2cc(Br)ccc2Cl)CC1
    i | 0.25
> O=C(CCc1nnc2ccc(N3CCCC3)nn12)Nc1ccc(F)c(F)c1
    i | 2.6
> Cc1c(Cl)cccc1NCC(=O)NN=C1CCCC1
    i | 0.36

# A portion of the library; rates above refer to the full screens.
